Mtb hypoxia inh = reduces hypoxia-regulated biosensor signal in M. tuberculosis; M. tuberculosis hypoxia-regulated fluorescent reporter, fluorescence; fluorescence inhibition, % (test concentration not listed); actives 0.1% (n = 300,000);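 active = 35 to 45% if threefold the growth effect, above 45% if 1.5-fold the growth effect; inactive = the rest, general growth blockers included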;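 also: wells of about 50 µL received 100 nL stock; 0% = vehicle wells and 100% = reference inhibitor wells; whole bacteria with a GFP reporter of the hypoxia response; strong numbers were not always called active; many hits fall short of the cut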
PrP UTR inh = inhibition of PrP 5' UTR reporter expression; cell-based PrP 5' UTR mRNA reporter, plate reader; inhibition, % (no concentration beside the values); actives 0.35% (n = 340,000);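 active = every replicate at 50% or more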;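 also: 0 = median of the neutral control wells; tested in H4 reporter cells; numbers are from one replicate; inactives centre near -14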
Sa ugtP lethal = kills S. aureus RN4220 lacking UgtP; S. aureus RN4220 ugtP deletion, OD600 growth, 16 h; some inactives read as strong as hits; actives 0.54% (n = 330,000); growth inhibition, % (concentration not given with the values);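 active = z-score under -3 and OD600 up to 0.15 on both plates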;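 also: plate controls were untreated wells for no effect and antibiotic for full effect; wells of about 80 µL received 100 nL stock; the first replicate is given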
RN4220 kill = S. aureus RN4220 growth inhibition. OD600, 16 h. inhibition, % (test concentration not listed). actives 0.33% (n = 330,000). AID 1259311;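 active = z-score of -3 or lower and OD600 up to 0.18 on both plates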;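 also: plate controls were untreated cells for no effect and reference antibiotic for full effect; stock transfer was 100 nL into about 80 µL; one replicate is shown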
BJeLR lethal = BJeLR cell viability loss; BJeLR (HRASV12) viability, CellTiter-Glo ATP luminescence, 48 h; reference of the scale not given here; inhibition, % (concentration not given with the values); actives 0.17% (n = 300,000); AID 1554;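 active = replicate mean above 50%; inconclusive = above 50% but judged a plate artefact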;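 also: 50 nL library stock added to about 25 µL; numbers are from one replicate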
Autofluor counter = counter-screen for toxin protease inhibitors: compound fluorescence | compound autofluorescence counterscreen, microsphere flow cytometry; hits give high values | fluorescence intensity (test concentration not listed) | actives 3.1% (n = 360,000);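 active = at least 3 SD above the mean of all compounds, about 16000 in these data; inconclusive = too few beads counted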;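 also: 100 nL of 1 mM stock went into each well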
Mtb hypoxia inh growth = second read-out of Mtb hypoxia inh, no call of its own (marks repeat the call); growth inhibition, %; measured here: M. tuberculosis growth (absorbance);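 0% = vehicle and 100% = reference antibiotic; read after six days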
Starred values were filed as active, the others as inactive; u = inconclusive; x = no result given.

no.	mol	Mtb hypoxia inh	Mtb hypoxia inh growth	PrP UTR inh	Sa ugtP lethal	RN4220 kill	BJeLR lethal	Autofluor counter
1	NC(=O)CSc1ccc(S(=O)(=O)N2CCCCC2)cn1	7	-7	-13	2	3.6	x	4121
2	O=C(NC(=S)NCCc1ccccc1)C1CCCCC1	8	4	-20	8	5.7	-5	2076
3	Cc1ccnc(N2C(=O)CSC2c2ccc(Cl)cc2)c1 (centres undefined)	5	-4	-19	6	-1.9	-15	2041
4	O=c1ccccn1Cc1c(F)cccc1Cl	x	x	-4	-2	1.6	20	3665
5	Cc1ccc(F)c(NC=C2C(=O)OC(C)(C)OC2=O)c1	18	3	5	-2	1.9	-2	7782
6	CCOc1cc(C(C(=O)NCC2CCCO2)N(C(=O)Cn2nnc3ccccc32)c2ccccc2OC)ccc1O (centres undefined)	3	1	-18	2	4.6	-4	4025
7	COc1ccc2[nH]cc(CCNC(=O)C3CC(=O)N(c4ccc(Cl)cc4)C3)c2c1 (centres undefined)	-5	-4	-30	0	1.5	5	3236
8	COC(=O)CCNS(=O)(=O)c1ccc2ccccc2c1	4	-2	-17	7	5.4	-3	11234
9	CCC(C)NC(=O)C1CCC(=O)N1CCc1ccccc1 (centres undefined)	9	11	-19	16	4.2	5	3824
10	CC[C@]12c3[nH]c4ccc(OC)cc4c3CCN1C(=O)C(CC(=O)NCCCN(C)C)C[C@@H]2C(=O)N1CCN(C(=O)C2CC2)CC1 (some centres undefined)	-11	0	-17	-1	-1.9	x	3752
11	COc1cc(CN2CCCCCC2)cc(Br)c1O	9	17	3	2	1.1	3	4450
12	CC(=O)Nc1ccc(S(=O)(=O)NNc2cccc(C)c2)cc1	-6	9	-20	2	4.3	-2	3676
13	O=C(N/N=C/c1ccc[nH]1)c1ccc([N+](=O)[O-])cc1	x	x	36	x	x	7	1994
14	CC(=O)c1ccc(NC(=O)c2c(C)nn(-c3ccccc3)c2Cl)cc1	7	3	-21	-7	2.7	3	2576
15	COc1ccc(S(=O)(=O)N(C)CC(=O)N2CCN(C)CC2)cc1Cl	-4	-2	7	14	4.6	5	u
16	Cc1cc(Br)cc(Cl)c1OCC(=O)N1CCN(C(=O)c2ccco2)CC1	21	44	-9	3	2.0	x	3443
17	Oc1ccc(C=NNc2ncc(Br)cn2)c(O)c1	-9	2	x	-7	8.2	x	x
18	O=C(CCN1CCN(c2ccccc2)CC1)N/N=C/c1ccc(O)c(O)c1O	x	x	4	x	x	-1	1791
19	COC(=O)c1ccccc1NC(=O)C1CCCN(S(=O)(=O)c2ccc(OC)cc2)C1 (centres undefined)	x	x	0	6	-3.1	-6	4786
20	O=C1C=C(O)C(n2cncn2)C(c2ccc(F)cc2)C1 (centres undefined)	3	6	-12	3	3.8	1	4164
21	CCN(CC)C(=O)CN1CCN(Cc2ccc3c(c2)OCO3)CC1	5	0	-12	2	2.8	-16	3809
22	Cc1ccsc1C=NNC(=O)c1ccc([N+](=O)[O-])cc1	-2	-17	x	8	6.4	x	x
23	COc1ccc(N2C(=O)/C(=C\c3ccco3)N=C2SCC(=O)NC(C)(C)C)cc1Cl	10	1	-10	-5	0.2	15	9701
24	CS(=O)(=O)N(CC(=O)NN=Cc1ccccn1)c1ccc(Oc2ccccc2)cc1	12	-2	x	3	4.6	x	x
25	CCOC(=O)c1cc(-c2ccc(F)cc2)n(CC(=O)Nc2nccs2)c1C	0	2	-16	4	0.3	3	4359
26	Fc1cccc(CSc2ccc3nnc(-c4cccnc4)n3n2)c1	5	3	-31	5	11	4	3665
27	Cc1ccc(C(=O)c2ccccc2C(=O)OCC(=O)NC(=O)NC(C)(C)C)cc1	18	10	-12	4	9.2	5	4167
28	COc1ccc(OC)c([C@@H](O)[C@H](C)NC(C)(C)C)c1	x	x	-18	x	x	-3	4077
29	CCOC(=O)C1=C(C)N(C)C(C)=C(C(=O)OCC)C1c1ccsc1	7	14	11	18	4.1	2	4127
30	CC(C)[C@H](NC(=O)c1cc2cc(Cl)ccc2n1C)C(=O)N[C@@H](C(=O)O)c1ccccc1	8	1	-9	11	4.8	-1	3242
31	COC(=O)c1ccc(NC(=O)Cn2nc(-c3ccncc3)nc2SCC(=O)Nc2nccs2)cc1	-12	-7	-3	-10	-4.3	-3	6095
32	CC1OC(OC2C(Oc3c(-c4ccc(O)cc4)oc4cc(O)cc(O)c4c3=O)OC(COC3O[C@@H](C)[C@H](O)[C@@H](O)C3O)C(O)C2O)C(O)C(O)C1O (some centres undefined)	x	x	-15	-7	1.4	1	5128
33	Cc1cc(OCCn2cnc3ccccc3c2=O)ccc1[N+](=O)[O-]	5	2	-17	-1	5.7	1	2428
34	CCOC(=O)C1CCN(c2ccc([N+](=O)[O-])cc2)CC1	-9	1	-9	8	5.2	3	2002
35	CC(=O)c1ccc(N2CCN(C(=O)c3ccc(C(=O)c4ccccc4)cc3)CC2)cc1	-9	-2	-9	9	2.6	x	3716
36	CCOC(=O)c1ccc(N2C(=O)C(O)=C(C(C)=O)C2c2ccccc2)cc1 (centres undefined)	x	x	-10	2	-0.3	-7	2419
37	Fc1ccc(CNc2nc(-c3ccco3)cc(C(F)(F)F)n2)cc1	1	5	-11	-17	-2.2	3	4102
38	COCCn1cnc2cc(C)c(C)cc21	x	x	-20	14	13	-4	2420
39	Cc1ccc(-c2nnc(NCc3nc4ccccc4[nH]3)c3ccccc23)cc1S(=O)(=O)N1CCOCC1	-8	2	-7	-13	12	6	2223
40	COC(=O)c1cc(OC)c(OC)cc1NC(=S)N1CCOCC1	6	-10	-20	5	1.5	11	3062

Reprinted from the part before: 3 entries, then new ones.
no.	mol	Mtb hypoxia inh	Mtb hypoxia inh growth	PrP UTR inh	Sa ugtP lethal	RN4220 kill	BJeLR lethal	Autofluor counter
38	COCCn1cnc2cc(C)c(C)cc21	x	x	-20	14	13	-4	2420
39	Cc1ccc(-c2nnc(NCc3nc4ccccc4[nH]3)c3ccccc23)cc1S(=O)(=O)N1CCOCC1	-8	2	-7	-13	12	6	2223
40	COC(=O)c1cc(OC)c(OC)cc1NC(=S)N1CCOCC1	6	-10	-20	5	1.5	11	3062
41	O=C(N[C@@H](Cc1ccccc1)C(=O)O)c1c(F)c(F)c(F)c(F)c1F	x	x	-17	x	x	1	3789
42	COc1ccc(CN(C(=O)c2cc3ccccc3oc2=O)C2CCS(=O)(=O)C2)cc1OC (centres undefined)	0	-14	-74	3	0.2	-2	4237
43	COc1cccc(N2CCN(Cc3nc4ccccc4c(=O)[nH]3)CC2)c1	x	x	-2	-3	1.2	-3	2084
44	Cc1ccc2occ(/C=N/NC(=O)c3ccccc3O)c(=O)c2c1	x	x	3	x	x	17	5837
45	C[C@H](CO)N1C[C@H](C)[C@@H](CN(C)S(=O)(=O)c2cn(C)cn2)Oc2c(NS(=O)(=O)c3ccccc3)cccc2C1=O	-9	4	-33	4	1.1	x	3611
46	CC(=O)c1ccc2noc(-c3ccccc3)c2c1	-4	-5	-10	9	8.6	6	4201
47	CCOC(=O)c1sc(=NC(=O)C2CC2)n(C)c1C	-1	3	-19	8	11	16	3300
48	COCCn1c(=S)[nH]c2cc(C(=O)NCCCN3CCOCC3)ccc2c1=O	-5	6	-9	0	2.7	9	22856*
49	O=C(CN(C(=O)c1csnn1)c1cccc(F)c1)NCc1ccc2c(c1)OCO2	-3	-3	-27	3	2.4	-5	5442
50	O=C1CCN(Cc2ccc([N+](=O)[O-])cc2)CCN1CCO	5	4	-25	-2	1.6	-6	2955
51	C=CCN=C(CC)C1=C(O)CCCC1=O	-3	6	-18	-1	0.8	3	2267
52	C=CCNC(=O)c1ccc2c(c1)S(=O)(=O)c1ccccc1C2=O	-17	-9	-2	4	17	-10	4237
53	COC(=O)c1ccc(/C=N/NC(=O)CC(=O)NC(C)C)cc1	x	x	-32	x	x	4	12686
54	O=C(OCc1ccc(Cl)cc1)c1ccccc1C(=O)c1ccccc1	15	4	-15	18	9.6	10	17651*
55	O=C(Nc1nc2n(n1)C(c1ccc(Cl)cc1)CC(c1ccc(Cl)cc1)N2)c1ccco1 (centres undefined)	-4	1	x	-34	18	-5	x
56	COc1ccccc1-c1ccc(=O)n(CC(=O)Nc2ccc(C(=O)N3CCCC3)cc2)n1	0	5	-3	8	2.1	-2	13913
57	CCOC(=O)c1c(C)[nH]c(C)c1C(=O)COC(=O)Cc1n[nH]c(=O)c2ccccc12	6	15	-13	3	6.0	x	3738
58	O=C(O)c1cccc(CSc2nnc(COc3ccccc3)o2)c1	x	x	1	1	-3.0	-2	3703
59	O=C1NC(=S)NC1=Cc1ccco1	20	6	-3	4	1.3	x	2985
60	CSc1ccc(-c2cccc([N+](=O)[O-])c2)nn1	11	1	-9	4	3.0	-3	3422

In a second layout: entries from further up.
(56) COc1ccccc1-c1ccc(=O)n(CC(=O)Nc2ccc(C(=O)N3CCCC3)cc2)n1
(57) CCOC(=O)c1c(C)[nH]c(C)c1C(=O)COC(=O)Cc1n[nH]c(=O)c2ccccc12
(58) O=C(O)c1cccc(CSc2nnc(COc3ccccc3)o2)c1
(59) O=C1NC(=S)NC1=Cc1ccco1
assay / entry,56,57,58,59
Mtb hypoxia inh,0,6,x,20
Mtb hypoxia inh growth,5,15,x,6
PrP UTR inh,-3,-13,1,-3
Sa ugtP lethal,8,3,1,4
RN4220 kill,2.1,6.0,-3.0,1.3
BJeLR lethal,-2,x,-2,x
Autofluor counter,13913,3738,3703,2985

A few values from the list.
entry 2 in PrP UTR inh shows -20
entry 41 in PrP UTR inh shows -17

Remaining list, next part.
no.	mol	Mtb hypoxia inh	Mtb hypoxia inh growth	PrP UTR inh	Sa ugtP lethal	RN4220 kill	BJeLR lethal	Autofluor counter
61	O=c1[nH]c(=O)n(Cc2ccccc2Cl)c(O)c1C=Nc1ccc(F)cc1	-2	-4	7	2	1.6	2	1920
62	COc1ccc(-c2noc(CN(C)S(=O)(=O)c3ccccc3)n2)cc1OC	x	x	-17	-7	0.0	6	4870
63	O=C(CSc1nc2[nH]ncc2c(=O)[nH]1)Nc1cccc(Cl)c1	-10	4	2	-2	0.0	9	5900
64	COc1ccccc1NCN1C(=O)CCC1=O	6	-4	-18	9	1.8	-10	5769
65	CCN1/C(=C/C=C/c2sc3ccccc3[n+]2CC)Sc2ccccc21	x	x	17	x	x	69*	1601
66	Cc1cc(=O)[nH]c(SCC(=O)Nc2cc(S(=O)(=O)N(C)C)ccc2Cl)n1	-6	-4	-55	9	8.3	5	4648
67	COc1ccc(C(C(=O)NC2CCCC2)N(Cc2ccco2)C(=O)c2snc(C(N)=O)c2N)cc1OC (centres undefined)	x	x	-7	x	x	-3	3351
68	N#Cc1cccc(C(=O)Nc2cccc(S(=O)(=O)N3CCCC3)c2)c1	8	7	-22	-2	0.0	0	5575
69	COc1cccc(CNS(=O)(=O)c2cccc(S(=O)(=O)N3CCOCC3)c2)c1	16	3	-10	10	6.3	-10	8136

Screens from PubChem BioAssay.
